Vaccinia inh – blocks a specific stage of Vaccinia orthopoxvirus infection | Vaccinia-infected cells, mCherry/Venus stage reporter fluorescence; hits give low values; some inactives read as strong as hits | AID 1053133 | 0.01% of 89,000 active | activity change (mCherry), % (no concentration beside the values);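 active means mCherry past -33% and 40 or more points under the early reporter, replicates agreeing; inconclusive means past -33% without that gap or agreement; tested in A549 cells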;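 further: scaled between vehicle wells and reference inhibitor wells; 23 nL library stock went into each well; one replicate is shown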
Vaccinia inh Venus – second read-out of Vaccinia inh, no call of its own (marks repeat the call); activity change (Venus), %; measured here: Venus reporter, other viral stage;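 negative = less Venus signal; first of two replicates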
Numbers without * were called inactive; & = joins results of further samples. Only part of the results is shown; count on the stated rates, not on these rows.

What do the screens show for `CC(C)NC(=O)N[C@@H]1C=C[C@@H](CC(=O)NCCN2CCCC2)O[C@H]1CO`?
Vaccinia inh: 15.3; Vaccinia inh Venus: 10.8

How did C[C@H](CO)N1C[C@H](C)[C@@H](CN(C)Cc2ccc(Cl)c(Cl)c2)Oc2ccc(NS(=O)(=O)c3ccccc3)cc2CC1=O do in these assays?
Vaccinia inh: inconclusive

What do the screens show for `CC(C)(O)C#Cc1ccc([C@@H]2[C@H]3CN(C(=O)c4ccncc4)CCCCN3[C@H]2CO)cc1`?
Vaccinia inh: 15.7; Vaccinia inh Venus: 4.0

Results for Cc1noc(C)c1NC(=O)Nc1ccc2c(c1)CC(=O)N([C@@H](C)CO)C[C@H](C)[C@H](CN(C)Cc1ccc(C(F)(F)F)cc1)O2 ?
Vaccinia inh: inconclusive

How did O=C(Nc1ccc(Cl)c(Cl)c1)N[C@@H]1CC[C@H](CCNC(=O)c2ccc(F)cc2)O[C@@H]1CO do in these assays?
Vaccinia inh: 3.8; Vaccinia inh Venus: 15.9

Results for O=C(CCN1CCCCC1)NCC[C@@H]1CC[C@H](NS(=O)(=O)c2cccc(F)c2)[C@H](CO)O1 ?
Vaccinia inh: -3.3; Vaccinia inh Venus: -4.5

Results for CN(C)C(=O)c1cccc(-c2ccc([C@H]3[C@@H](CO)N4CCCCN(C(=O)C5CCCC5)C[C@H]34)cc2)c1 ?
Vaccinia inh: 8.5; Vaccinia inh Venus: -5.5

What do the screens show for `C[C@@H]1CN([C@H](C)CO)C(=O)CCCn2cc(nn2)CO[C@@H]1CN(C)Cc1ccc(C(=O)O)cc1`?
Vaccinia inh: 15.4; Vaccinia inh Venus: 23.3

How did CN(C)CC(=O)N1[C@H](CO)[C@@H](c2ccc(C#CC3CC3)cc2)[C@@H]1C#N do in these assays?
Vaccinia inh: 20.2; Vaccinia inh Venus: 7.7

What do the screens show for `Cc1ccc(S(=O)(=O)N(C)C[C@H]2OCCCC[C@@H](C)Oc3ccc(NS(=O)(=O)c4ccc(F)cc4)cc3C(=O)N([C@H](C)CO)C[C@H]2C)cc1`?
Vaccinia inh: inconclusive

How did C[C@@H]1CN([C@@H](C)CO)C(=O)c2cccc(NC(=O)Nc3ccc(F)cc3)c2O[C@H]1CN(C)Cc1ccc2c(c1)OCO2 do in these assays?
Vaccinia inh: -3.2; Vaccinia inh Venus: -2.7

What do the screens show for `COc1cc(CN2C[C@@H]3N[C@H](C2)C3c2ccc(-c3ccncc3)cc2)cc(OC)c1` (stereo partly specified)?
Vaccinia inh: inconclusive

How did Cc1ccc(S(=O)(=O)N(C)C[C@H]2Oc3ncc(-c4ccncc4)cc3C(=O)N([C@H](C)CO)C[C@H]2C)cc1 do in these assays?
Vaccinia inh: 3.0; Vaccinia inh Venus: -8.1

What do the screens show for `CC(C)C#Cc1ccc2c(c1)O[C@@H](CN(C)C(=O)NC(C)C)[C@@H](C)CN([C@H](C)CO)S2(=O)=O`?
Vaccinia inh: 0.2; Vaccinia inh Venus: -0.9

What do the screens show for `O=S(=O)(N[C@H]1CC[C@H](CCn2cc(C3(O)CCCC3)nn2)O[C@@H]1CO)c1ccc(F)cc1`?
Vaccinia inh: -6.3; Vaccinia inh Venus: -5.4

The closing 4 compounds of the part above open the next one:
What do the screens show for `COc1cc(CN2C[C@@H]3N[C@H](C2)C3c2ccc(-c3ccncc3)cc2)cc(OC)c1` (stereo partly specified)?
Vaccinia inh: inconclusive

How did Cc1ccc(S(=O)(=O)N(C)C[C@H]2Oc3ncc(-c4ccncc4)cc3C(=O)N([C@H](C)CO)C[C@H]2C)cc1 do in these assays?
Vaccinia inh: 3.0; Vaccinia inh Venus: -8.1

What do the screens show for `CC(C)C#Cc1ccc2c(c1)O[C@@H](CN(C)C(=O)NC(C)C)[C@@H](C)CN([C@H](C)CO)S2(=O)=O`?
Vaccinia inh: 0.2; Vaccinia inh Venus: -0.9

What do the screens show for `O=S(=O)(N[C@H]1CC[C@H](CCn2cc(C3(O)CCCC3)nn2)O[C@@H]1CO)c1ccc(F)cc1`?
Vaccinia inh: -6.3; Vaccinia inh Venus: -5.4

What do the screens show for `C[C@@H]1CN([C@H](C)CO)C(=O)c2cc(NS(=O)(=O)c3ccccc3)ccc2O[C@H]1CN(C)C(=O)Nc1cccc2ccccc12`?
Vaccinia inh: 9.6; Vaccinia inh Venus: 8.6

How did C[C@@H]1CN([C@@H](C)CO)C(=O)c2cc(C#Cc3ccccc3)cnc2O[C@H]1CN(C)C(=O)c1ccccn1 do in these assays?
Vaccinia inh: 3.9; Vaccinia inh Venus: 1.0

What do the screens show for `O=C1CN(S(=O)(=O)c2ccccc2)C[C@@H]2[C@H](c3ccc(C#CCc4ccccc4)cc3)[C@@H](CO)N12`?
Vaccinia inh: 28.1; Vaccinia inh Venus: 13.8

How did C[C@@H]1CN([C@@H](C)CO)C(=O)c2cc(NS(=O)(=O)c3cn(C)cn3)ccc2O[C@@H](C)CCCCO[C@H]1CN(C)S(=O)(=O)c1ccc(F)cc1 do in these assays?
Vaccinia inh: 12.3; Vaccinia inh Venus: -1.3

What do the screens show for `CCCC(=O)Nc1ccc2c(c1)C(=O)N(C)C[C@H](OC)[C@@H](C)CN(Cc1cccc(F)c1)[C@@H](C)CO2`?
Vaccinia inh: 11.5; Vaccinia inh Venus: 8.3

What do the screens show for `CCCN1[C@@H]2c3ccc(/C=C/c4ccccc4)c(=O)n3C[C@@H]2[C@@H](CO)[C@@H]1C(=O)N1CCOCC1`?
Vaccinia inh: -25.8; Vaccinia inh Venus: -10.7

What do the screens show for `CCCN1[C@@H]2Cn3c(ccc(/C=C/c4ccccc4)c3=O)[C@H]1[C@@H](C(=O)NCC)[C@@H]2CO`?
Vaccinia inh: -4.6; Vaccinia inh Venus: -1.0

Results for CNC[C@@H]1Oc2c(NS(=O)(=O)c3ccc(Cl)cc3)cccc2C(=O)N([C@H](C)CO)C[C@@H]1C ?
Vaccinia inh: -7.9; Vaccinia inh Venus: -9.4

How did C[C@@H]1CN([C@H](C)CO)C(=O)c2cc(NS(C)(=O)=O)ccc2O[C@@H]1CN(C)CC1CCCCC1 do in these assays?
Vaccinia inh: 0.8; Vaccinia inh Venus: -0.8

Results for COc1ccc(C#Cc2ccc3c(c2)O[C@H](CN(C)C)[C@H](C)CN([C@@H](C)CO)S3(=O)=O)cc1 ?
Vaccinia inh: inconclusive

Results for CC(=O)N(C)C[C@@H]1Oc2ncc(C#Cc3ccccn3)cc2C(=O)N([C@H](C)CO)C[C@@H]1C ?
Vaccinia inh: 12.5; Vaccinia inh Venus: 20.3

What do the screens show for `COc1ccc(NC(=O)N(C)C[C@H]2Oc3ncc(C#CCN(C)C)cc3C(=O)N([C@H](C)CO)C[C@H]2C)cc1`?
Vaccinia inh: 13.0; Vaccinia inh Venus: -1.0

What do the screens show for `CCC(=O)Nc1ccc2c(c1)OC[C@H](C)N(C(=O)Cc1ccccn1)C[C@@H](C)[C@@H](OC)CN(C)C2=O`?
Vaccinia inh: -0.1; Vaccinia inh Venus: 2.1

What do the screens show for `CCCNC(=O)N1[C@H](C#N)[C@H](c2ccccc2-c2ccccc2F)[C@@H]1CO`?
Vaccinia inh: -1.3; Vaccinia inh Venus: -1.9

Results for CC(C)NC(=O)Nc1ccc2c(c1)C(=O)N([C@@H](C)CO)C[C@H](C)[C@H](CN(C)Cc1ccc(C(=O)O)cc1)OCCCC[C@H](C)O2 ?
Vaccinia inh: 30.0; Vaccinia inh Venus: 6.3

Random excerpt: 2 entries already listed
What do the screens show for `CCC(=O)Nc1ccc2c(c1)OC[C@H](C)N(C(=O)Cc1ccccn1)C[C@@H](C)[C@@H](OC)CN(C)C2=O`?
Vaccinia inh: -0.1; Vaccinia inh Venus: 2.1

What do the screens show for `COc1ccc(NC(=O)N(C)C[C@H]2Oc3ncc(C#CCN(C)C)cc3C(=O)N([C@H](C)CO)C[C@H]2C)cc1`?
Vaccinia inh: 13.0; Vaccinia inh Venus: -1.0

Other structures
What do the screens show for `O=C(NCCCN1CCOCC1)[C@@H]1[C@@H](CO)[C@@H]2Cn3c(cccc3=O)[C@H]1N2C(=O)C1CCCC1`?
Vaccinia inh: 18.2; Vaccinia inh Venus: 12.8

Results for C[C@@H]1CN([C@H](C)CO)C(=O)c2cccc(NS(=O)(=O)c3cccs3)c2O[C@H]1CN(C)S(=O)(=O)c1ccc(F)cc1 ?
Vaccinia inh: 9.8; Vaccinia inh Venus: 10.9

How did CC(C)NC(=O)N(C)C[C@@H]1Oc2ccc(NC(=O)Nc3ccc4c(c3)OCO4)cc2CC(=O)N([C@H](C)CO)C[C@H]1C do in these assays?
Vaccinia inh: 15.0; Vaccinia inh Venus: 9.2

Results for C/C=C/c1ccc2c(c1)O[C@H](CN(C)C(=O)CC)[C@H](C)CN([C@@H](C)CO)S2(=O)=O ?
Vaccinia inh: 12.9; Vaccinia inh Venus: 14.4

Results for O=C(O)[C@@H]1[C@@H](CO)[C@@H]2Cn3c(ccc(C4=CCCCC4)c3=O)[C@@H]2N1C(=O)Cc1cccnc1 ?
Vaccinia inh: 9.7; Vaccinia inh Venus: 8.1

How did COc1ccc(-c2cn(CC[C@H]3CC[C@@H](NS(=O)(=O)c4ccccc4C)[C@H](CO)O3)nn2)cc1 do in these assays?
Vaccinia inh: -19.5; Vaccinia inh Venus: -12.6

How did Cc1ccc(S(=O)(=O)Nc2ccc3c(c2)C(=O)N([C@H](C)CO)C[C@@H](C)[C@H](CN(C)Cc2ccncc2)O3)cc1 do in these assays?
Vaccinia inh: 12.0; Vaccinia inh Venus: 10.3

How did C[C@@H]1CN([C@H](C)CO)C(=O)c2cccc(N(C)C)c2O[C@@H]1CN(C)C(=O)Nc1ccccc1 do in these assays?
Vaccinia inh: 17.5; Vaccinia inh Venus: 5.5

What do the screens show for `C[C@@H]1CN([C@H](C)CO)C(=O)c2cc(NS(=O)(=O)c3cccs3)ccc2O[C@@H](C)CCCCO[C@@H]1CN(C)C(=O)c1ccncc1`?
Vaccinia inh: 6.2; Vaccinia inh Venus: 7.7

Results for O=C(NCc1ccccc1)C1=C[C@@H](C2CCCCC2)C[C@@H](OCc2ccc(CO)cc2)O1 ?
Vaccinia inh: 12.6; Vaccinia inh Venus: 7.6

Results for CN1C(=O)c2cc(NC(=O)C3CCOCC3)ccc2OC[C@H]2O[C@H](CC(=O)NCc3ccc4c(c3)OCO4)CC[C@H]21 ?
Vaccinia inh: 1.0; Vaccinia inh Venus: 8.0

Results for C[C@H](CO)N1C[C@H](C)[C@H](CN(C)C(=O)Nc2ccccc2F)Oc2ncc(-c3cccc(F)c3)cc2C1=O ?
Vaccinia inh: 1.3; Vaccinia inh Venus: -4.9

What do the screens show for `CNC[C@@H]1Oc2ccc(NC(=O)Nc3ccc(F)cc3)cc2C(=O)N([C@@H](C)CO)C[C@@H]1C`?
Vaccinia inh: 16.0; Vaccinia inh Venus: 8.2

What do the screens show for `CCCC(=O)Nc1ccc2c(c1)C(=O)N(C)[C@@H]1CC[C@H](CC(=O)N3CCCCC3)O[C@@H]1CO2`?
Vaccinia inh: 10.6; Vaccinia inh Venus: 0.7

How did C[C@H]1CN([C@@H](C)CO)C(=O)c2cc(NC(=O)CCCN(C)C)ccc2O[C@@H]1CN(C)S(=O)(=O)c1ccc(F)cc1 do in these assays?
Vaccinia inh: 12.4; Vaccinia inh Venus: 3.8

How did O=C(N[C@@H]1CC[C@H](CCNS(=O)(=O)c2cccc(Cl)c2)O[C@@H]1CO)c1ccccc1 do in these assays?
Vaccinia inh: -5.0; Vaccinia inh Venus: -8.1

Results for C[C@@H]1CN([C@H](C)CO)C(=O)c2cc(NS(=O)(=O)c3ccc(Cl)cc3)ccc2O[C@H]1CN(C)S(=O)(=O)c1cn(C)cn1 ?
Vaccinia inh: 12.5; Vaccinia inh Venus: 11.3

How did COc1ccc(S(=O)(=O)N(C)C[C@@H]2Oc3ccc(NC(=O)C4CC4)cc3C(=O)N([C@H](C)CO)C[C@@H]2C)cc1 do in these assays?
Vaccinia inh: -8.2; Vaccinia inh Venus: -8.0

How did OC[C@H]1[C@@H](c2ccc(C#Cc3ccccc3F)cc2)[C@@H]2CN(CC3CCOCC3)CCCCN12 do in these assays?
Vaccinia inh: inconclusive

How did CC(C)NC(=O)Nc1ccc2c(c1)C(=O)N([C@H](C)CO)C[C@@H](C)[C@H](CN(C)CC1CC1)OCCCC[C@H](C)O2 do in these assays?
Vaccinia inh: -4.5; Vaccinia inh Venus: 9.8

What do the screens show for `COc1ccc(NC(=O)N(C)C[C@@H]2Oc3ccc(NC(=O)Cc4ccccc4)cc3C(=O)N([C@@H](C)CO)C[C@@H]2C)cc1`?
Vaccinia inh: -5.2; Vaccinia inh Venus: -9.9

What do the screens show for `C[C@@H]1CN([C@@H](C)CO)C(=O)c2cc(NC(=O)Nc3ccc(F)cc3)ccc2O[C@@H](C)CCCCO[C@H]1CN(C)Cc1ccc(C(F)(F)F)cc1`?
Vaccinia inh: -22.6; Vaccinia inh Venus: -25.7

What do the screens show for `COC(=O)[C@H]1[C@H](CO)[C@H]2Cn3c(ccc(-c4cccc(OC)c4)c3=O)[C@H]2N1CC1CC1`?
Vaccinia inh: 3.8; Vaccinia inh Venus: 9.6

How did C[C@H]1CN([C@@H](C)CO)C(=O)c2cc(C#CC3CCCCC3)cnc2O[C@H]1CN(C)S(=O)(=O)c1ccc(F)cc1 do in these assays?
Vaccinia inh: -14.3&-6.9; Vaccinia inh Venus: -12.6&-3.9

How did CC=Cc1ccc2n(c1=O)C[C@@H]1[C@@H](CO)[C@H](C(=O)NC3CCCC3)N(C(=O)C3CC3)[C@H]21 (mixture of isomers) do in these assays?
Vaccinia inh: 6.5; Vaccinia inh Venus: 2.5

How did COc1ccc(NC(=O)Nc2ccc3c(c2)C(=O)N([C@@H](C)CO)C[C@@H](C)[C@H](CN(C)Cc2ccc(Cl)c(Cl)c2)O3)cc1 do in these assays?
Vaccinia inh: inconclusive

What do the screens show for `Cc1noc(C)c1NC(=O)N(C)C[C@H]1OCc2ccccc2-c2c(n(C)c3ccccc23)C(=O)N([C@H](C)CO)C[C@H]1C`?
Vaccinia inh: 7.8; Vaccinia inh Venus: -0.9

How did C[C@@H]1CN([C@@H](C)CO)C(=O)Cc2cc(NC(=O)Nc3cccc4ccccc34)ccc2O[C@@H]1CN(C)CC1CCCCC1 do in these assays?
Vaccinia inh: -14.0; Vaccinia inh Venus: -7.9

Bioassay records as filed in PubChem BioAssay.
